# From PubChem BioAssay
# FGF22 binding: shifts melting point of recombinant human FGF22; recombinant FGF22 thermal shift, SYPRO orange fluorescence; percent of sucrose octasulfate shift, DMSO zero; calls only at 9.99 µM; 340,000 compounds, 1.5% hits; AID 651658;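 active = melting point raised past a set limit in the mean and every replicate; inconclusive = no clear call; three in four hits are not shown here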
# Target sequence (Q9HCT0 whole entry, looked up): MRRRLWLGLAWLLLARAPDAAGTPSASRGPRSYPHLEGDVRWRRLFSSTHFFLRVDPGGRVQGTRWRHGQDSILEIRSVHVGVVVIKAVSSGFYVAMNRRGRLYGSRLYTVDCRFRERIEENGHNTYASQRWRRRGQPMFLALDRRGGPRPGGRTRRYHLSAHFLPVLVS
# rRNA inh HTS: selective bacterial rRNA inhibition in E. coli; AID 720706; GFP signal change (wild-type ribosome), % (test concentration not listed); E. coli WT GFP vs humanized-ribosome RFP mutants, fluorescence, 24 h; stronger effect = lower value; DMSO median 0, no signal -100; 350,000 compounds, 1.6% hits;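 active = significant combined selectivity score with lowered wild-type GFP, culture density cut under 30%, mutant RFP and density less affected; inactive = any of these conditions unmet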; note: one replicate is shown; some compounds called inactive have numbers as strong as hits
# ALR inh: blocks human ALR sulfhydryl oxidase activity; purified ALR, DTT oxidation, H2O2 HRP-luminol luminescence; inhibition, % (concentration not given with the values); 290,000 compounds, 3.8% hits;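 active = mean and each replicate at 75% or more; inconclusive = only one of the two met; inactive = neither met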;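 note: stock transfer was 7.5 nL into about 7.5 µL; 0% = neutral wells and 100% = wells with inactivated enzyme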
# E coli growth: blocks Escherichia coli growth; OD600, 23 h; stronger effect = lower value; OD600 absorbance (no concentration beside the values); 330,000 compounds, 0.21% hits; AID 1053175;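 active = OD600 absorbance below the run mean of sample wells minus 3.6 SD, in any replicate, cut at about 0.56 in these data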;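 note: stock transfer was 300 nL into about 60 µL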
# HNF4A DNA FP: change in binding of human HNF4 alpha to DNA | P41235 | HNF4a-FITC DNA binding, fluorescence polarization, 1 h | activity change, % at 10 µM | 360,000 compounds, 0.3% hits | AID 1224865; in the data active = activity change above about 30%, passing the limit was not always enough;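 note: controls were the assay level and a saturating level of protein; the project sought stronger binding though the title names inhibitors; some compounds called inactive have numbers as strong as hits; positive values seem to mean higher polarization but the record does not say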
# Target sequence (P41235 whole entry, looked up): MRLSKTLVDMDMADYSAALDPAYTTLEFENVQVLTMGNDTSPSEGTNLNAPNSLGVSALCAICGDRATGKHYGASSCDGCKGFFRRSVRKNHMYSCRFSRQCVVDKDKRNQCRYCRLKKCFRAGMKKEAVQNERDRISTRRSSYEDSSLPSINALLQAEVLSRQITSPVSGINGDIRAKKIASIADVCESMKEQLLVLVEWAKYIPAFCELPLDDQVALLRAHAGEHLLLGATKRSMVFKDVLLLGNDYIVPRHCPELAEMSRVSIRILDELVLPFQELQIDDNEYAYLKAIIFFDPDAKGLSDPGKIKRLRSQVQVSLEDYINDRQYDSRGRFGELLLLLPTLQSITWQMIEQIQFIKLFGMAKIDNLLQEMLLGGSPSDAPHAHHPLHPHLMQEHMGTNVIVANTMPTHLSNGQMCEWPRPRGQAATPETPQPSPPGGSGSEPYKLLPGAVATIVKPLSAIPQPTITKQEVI
# UCH37 inh: human UCH37 deubiquitinating enzyme inhibition; purified proteasome/UCH37, Ub-AMC cleavage fluorescence; inhibition, % (no concentration beside the values); 330,000 compounds, 0.33% hits;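 active = mean of two replicates above 20%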;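 note: 0% = compound-free wells with enzyme and 100% = wells lacking proteasome; stock transfer was 100 nL into about 20 µL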
#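 Assay system: Proteasome-bound UCH37. Buffer or medium: pH 7.4 Tris-HCl (50 mM) with ovalbumin, ATP-MgCl2, DTT. Incubation: 30 min preincubation with enzyme, 25 min cleavage at room temperature. Measured by: fluorescence, ex 355 nm, em 460 nm. Read-out basis: percent inhibition. Control set: wells without proteasome as full block, compound-free enzyme plus substrate as uninhibited.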
# Beta2AR agonist: activates human beta-2 adrenergic receptor causing internalization | Am2.2-beta2AR cells, FAP receptor internalization, flow cytometry; reference of the scale not given here | response, % (no concentration beside the values) | 340,000 compounds, 0.43% hits | P07550 | AID 504454;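 active = response above a set limit, near 3 SD of response in nonfluorescent compounds, cut at about 42% in these data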;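 note: stock transfer was 100 nL into about 11 µL; a reference agonist was the positive control; negative values mostly stem from fluorescent compounds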
# Target sequence (P07550 whole entry, looked up): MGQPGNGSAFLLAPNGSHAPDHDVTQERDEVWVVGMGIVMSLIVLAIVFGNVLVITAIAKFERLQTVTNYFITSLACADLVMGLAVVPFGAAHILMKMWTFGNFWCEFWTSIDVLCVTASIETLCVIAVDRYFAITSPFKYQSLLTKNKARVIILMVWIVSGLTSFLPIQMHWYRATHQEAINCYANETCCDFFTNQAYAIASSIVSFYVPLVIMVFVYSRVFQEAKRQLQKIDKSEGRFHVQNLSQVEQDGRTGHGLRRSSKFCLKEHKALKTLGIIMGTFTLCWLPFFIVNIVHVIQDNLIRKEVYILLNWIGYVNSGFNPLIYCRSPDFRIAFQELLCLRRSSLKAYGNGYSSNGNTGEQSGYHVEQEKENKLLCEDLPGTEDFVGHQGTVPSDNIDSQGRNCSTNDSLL
# rRNA inh HTS OD600: recorded beside rRNA inh HTS, whose call it bears; OD600 change, %; measured here: OD600 growth;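 optical density of the mix in the first replicate; 0 = DMSO median and -100 = no signal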
# rRNA inh HTS RFP: second read-out of rRNA inh HTS, no call of its own (marks repeat the call); RFP signal change, %; measured here: RFP humanized mutant strains;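 first replicate; 0 = DMSO median and -100 = no signal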
# Starred values were filed as active, the others as inactive; i = inactive; u = inconclusive; x = no result given; + = active, no number. A portion of the library; count on the stated rates, not on these rows.
SMILES,FGF22 binding,rRNA inh HTS,rRNA inh HTS OD600,rRNA inh HTS RFP,ALR inh,E coli growth,HNF4A DNA FP,UCH37 inh,Beta2AR agonist
CCOc1ccc(NC(=O)c2nn(-c3ccc(OC)cc3OC)c(=O)c3ccccc23)cc1,i,-2,0,-1.1,-4,0.71,x,0.5,x
O=C(O)COc1ccc(NC(=O)c2cccs2)cc1,i,14,6,-2.5,-3,0.64,0.3,2.9,-1
O=C(c1cc(C2CC2)on1)N1CCCC(N2CCN(c3cccc(C(F)(F)F)c3)CC2)C1 (stereo not drawn),i,-33,-57,-8.5,-2,x,-1.8,x,-10
C=C1c2cccc(OC)c2O[C@H](C(=O)OCC)[C@@H]1CC(CC)CCCC (stereo partly drawn),i,12,9,1.8,x,0.66,1.8,-0.1,1
Cc1cccc(CSc2nnc(NC(=O)c3ccco3)s2)c1,x,x,x,x,0,0.68,2.2,3.7,-6
Nc1c(C=C2C=CC(=O)C=C2)c(=O)nc2sc(CC(=O)N3CCCCC3)nn12,i,6,13,-0.1,x,x,-3.9,x,2
CCOC(=O)Nc1cccc(OCC(=O)Nc2ccccc2OC)c1,x,x,x,x,-2,0.64,1.6,0.3,5
COc1ccc(-c2nc3cc(C)ccn3c2NC(=O)c2c(F)cccc2Cl)cc1,i,4,4,0.9,6,0.72,9.4,-9.7,7
COc1cc(SC)ccc1C(=O)Nc1ccc(Cl)cn1,i,14,19,4.2,-3,0.71,2.6,1.7,-8
COC(=O)c1ccccc1NC(=O)CSc1ncccn1,i,-2,-4,0.2,-1,0.67,4.0,5.3,3
CCOC(=O)N1CCC(NC(=O)c2ccc3c(c2)N=C(CC)c2cc(C)ccc2S3)CC1,i,-18,-18,6.6,2,0.66,7.9,2.8,22
CC(=O)N1c2ccc(S(=O)(=O)N3CCC(C(=O)N4CCN(c5ccccc5)CC4)CC3)cc2CC1C (stereo not drawn),i,-7,1,-3.5,12,0.72,-3.6,-2.5,-1
O=C(C(=O)N1CCc2ccccc2C1)c1cn(CC(=O)N2CCCC2)c2ccccc12,x,x,x,x,-7,0.63,-2.0,5.7,-5
C=C(C)c1cccc(C(C)(C)NC(=O)Nc2cc(C)ccc2OC)c1,x,x,x,x,6,0.71,0.0,1.6,11
COc1cccc(Nc2c(F)c(OC)c(F)c(F)c2C(=O)O)c1,x,x,x,x,21,0.7,2.9,2.2,-4
O=C(Nc1ccc(S(=O)(=O)Nc2ncccn2)cc1)c1ccccc1NS(=O)(=O)c1ccc(Cl)cc1,i,2,-5,0.9,10,0.7,-3.2,-6.8,-1
CCOc1ccc(/C=N/Nc2ccccn2)cc1OC,i,1,1,-3.0,86*,x,-1.9,x,2
CCn1c(O)c(C=Nc2ccccc2)n(-c2ccccc2)c1=S,x,13,0,-8.2,u,0.7,-4.0,4.5,-16
CCn1c(CSc2nc(C)cc(C)n2)nnc1SCC(=O)N1CCCc2ccccc21,x,x,x,x,3,0.72,-2.8,-1.9,0
CC(NC(=O)CCNC(=O)c1ccc(C(C)(C)C)cc1)c1ccccc1 (stereo not drawn),i,-2,-26,7.9,-10,0.72,1.9,3.0,4
O=c1[nH]ncc2c3ccccc3n(Cc3cccc(Cl)c3)c12,i,-4,0,2.7,-4,x,63*,x,-4
COc1ccc([N+](=O)[O-])cc1N(CC(=O)NC1CCCCC1)S(C)(=O)=O,i,8,6,0.9,-11,0.62,-0.3,1.5,-4
Cc1ccc(C(=O)Cn2nnc(-c3ccccc3)n2)cc1,i,-13,-21,-3.2,1,0.64,-0.2,5.2,-5
CC1CCC(NC(=O)c2nn(C)c3c2CSc2ccccc2-3)CC1 (stereo not drawn),i,7,5,22,-5,0.69,-2.5,3.3,x
COc1ccc(OC)c(S(=O)(=O)N2CCC(C(=O)NCCc3ccc(OC)c(OC)c3)CC2)c1,x,x,x,x,-1,0.69,1.1,2.8,4

# Remaining list, next part:
SMILES,FGF22 binding,rRNA inh HTS,rRNA inh HTS OD600,rRNA inh HTS RFP,ALR inh,E coli growth,HNF4A DNA FP,UCH37 inh,Beta2AR agonist
CC1CN(c2ccc(NC(=S)NNCCC#N)cc2)CC(C)O1 (stereo not drawn),i,4,0,1.0,44,0.72,3.4,1.7,-6
COc1ccc(N2CCN(C(=O)c3cc(-c4cc(OC)ccc4OC)nc4ccccc34)CC2)cc1,i,-3,-3,1.3,-3,0.74,-4.7,-1.9,-2
COc1ccc(-c2csc(/C(C#N)=C\c3ccc(O)c([N+](=O)[O-])c3)n2)cc1OC,i,0,3,3.7,0,0.7,-0.9,21*,25
CC(=O)C1(C)N(O)C(C)(C)C(c2ccco2)=[N+]1[O-] (stereo not drawn),x,x,x,x,14,0.71,2.8,3.8,5
O=C1NC(=O)/C(=C/c2ccc(-c3cc(C(=O)O)ccc3Cl)o2)S1,i,-23,-33,-10,-25,0.7,-16,9.0,-3
CCCCCCNC(=O)CCCCCNS(=O)(=O)c1ccc(Br)cc1,i,-1,5,2.9,-2,0.7,-1.5,5.9,-4
COc1ccc(S(=O)(=O)n2ccc(-c3ccc(OCCN(C)c4ccccn4)cc3)n2)cc1,x,x,x,x,28,0.76,5.4,-2.2,-5
COc1cccc(-c2cc(C(=O)O)c3cc4ccccc4cc3n2)c1OC,i,1,5,-2.4,x,x,0.8,x,x
COc1ccccc1-n1cc(CN2CCN(C3CCCCC3)C(CCO)C2)cn1 (stereo not drawn),x,8,5,1.9,-6,0.73,0.3,-1.7,-4
COc1cccc(NC(=O)n2nc(N)cc2-c2ccc(Cl)cc2)c1,i,-39,-59,5.0,59,0.74,-0.5,4.0,9
CNC(=S)N1CCc2cc(OC)c(OC)cc2C1,i,0,-9,-1.0,x,0.7,-1.6,-2.4,1
Cc1nnsc1NC(=O)OCc1ccc(C(F)(F)F)cc1,x,x,x,x,-3,0.69,0.7,1.0,-6
CC1(C)CC(=O)C(C(=O)/C=C/NCCc2ccccc2)C(=O)C1,x,x,x,x,3,0.78,-3.5,5.8,-4
CCN1C(=O)C(CC(=O)Nc2ccc(OC)cc2)N(CCN2CCOCC2)C1=S (stereo not drawn),i,13,0,3.2,-3,0.65,0.9,5.1,1
COc1ccc(CNC(=O)c2cc3ccccc3o2)cc1OC,i,-8,-21,-16,-26,0.7,-1.7,3.9,1
COc1cc(/C=C2\SC(=S)N(CCC(=O)NC3CCCC3)C2=O)cc(OC)c1OC,i,3,-1,-4.0,-11,0.67,-2.8,10,2
COc1ccc(CCNC(=O)COc2cc(C)cc3oc(=O)cc(C)c23)cc1OC,i,3,10,-4.3,0,0.66,-5.3,0.6,6
COc1cc(F)ccc1S(=O)(=O)n1c(C)nc2ccccc21,i,7,-2,-3.3,1,0.7,1.2,3.4,2
O=C(NNC(=S)Nc1ccccc1)c1ccco1,x,x,x,x,36,0.68,2.4,5.0,3
O=C(Nc1ccc(F)c(Cl)c1)c1ccc2sc([C@H]3C[C@H](O)[C@@H](CO)O3)nc2c1,i,-38,-48,-0.9,x,x,-0.8,x,x
Cc1ccc(S(=O)(=O)N2CCN(C(=O)N3CCOCC3)C2C(C)C)cc1 (stereo not drawn),x,x,x,x,-11,0.71,-1.8,3.7,-1
Cc1cc(C)n(Cc2ccc(Cl)nc2)n1,i,8,8,-2.1,20,0.69,3.9,1.9,-2
Cc1nc(N2CCCCC2)c(C#N)c(C)c1[N+](=O)[O-],i,-33*,-12*,-6.6*,x,0.68,-0.2,5.0,0
CS(=O)(=O)N(CC(=O)NCc1ccco1)c1ccccc1Cl,x,x,x,x,1,0.68,0.9,4.4,-7
Cn1c([N+](=O)[O-])cnc1COC(N)=O,i,3,-43,16,x,0.67,4.2,1.4,-1

# Four entries from above in another layout:
structure	FGF22 binding	rRNA inh HTS	rRNA inh HTS OD600	rRNA inh HTS RFP	ALR inh	E coli growth	HNF4A DNA FP	UCH37 inh	Beta2AR agonist
C=C(C)c1cccc(C(C)(C)NC(=O)Nc2cc(C)ccc2OC)c1	x	x	x	x	6	0.71	0.0	1.6	11
COc1cccc(Nc2c(F)c(OC)c(F)c(F)c2C(=O)O)c1	x	x	x	x	21	0.7	2.9	2.2	-4
O=C(Nc1ccc(S(=O)(=O)Nc2ncccn2)cc1)c1ccccc1NS(=O)(=O)c1ccc(Cl)cc1	i	2	-5	0.9	10	0.7	-3.2	-6.8	-1
CCOc1ccc(/C=N/Nc2ccccn2)cc1OC	i	1	1	-3.0	86*	x	-1.9	x	2

# (cont.)
SMILES,FGF22 binding,rRNA inh HTS,rRNA inh HTS OD600,rRNA inh HTS RFP,ALR inh,E coli growth,HNF4A DNA FP,UCH37 inh,Beta2AR agonist
O=c1cc(N2CCCCC2)nc2n1CCCS2,x,x,x,x,6,0.68,4.8,0.7,0
O=C(O)CN1C(=O)C(=O)N(Cc2ccc(Cl)cc2Cl)C1=O,i,4,10,3.8,1,0.69,-0.2,-1.7,-3
O=C(Nc1cc2c(cc1Cl)OCCCO2)c1ccccc1,x,x,x,x,-9,0.73,-2.2,1.4,-4
CCOC(=O)c1ccc(NC(=S)NNC(C)(C)C)cc1,i,12,8,4.4,-10,0.69,0.7,2.5,-4
COc1ccc(CN(CC2CCC(C(=O)O)CC2)C(=S)Nc2cc(Cl)ccc2OC)cc1 (stereo not drawn),x,10,8,-1.4,-1,0.67,-1.3,4.3,-2
Cn1ccsc1=NC(=O)c1ccccc1F,i,14,5,1.6,-12,0.67,-0.1,1.6,0
COC(=O)CSc1nnc(Cc2cc(=O)[nH]c(=O)[nH]2)n1-c1cccc(OC)c1,x,x,x,x,6,0.67,-3.4,1.6,4
Clc1cc2c(cc1/C=N/Nc1nc(N3CCOCC3)nc(N3CCOCC3)n1)OCO2,i,16,16,5.9,-1,x,3.1,x,-3
O=C(Nc1nnc(S(=O)(=O)N2CCCC2)s1)c1ccccc1Br,i,-25,-49,-6.9,x,0.73,0.5,-0.3,6
CC1CCN(c2c(NCC3CCC(C(=O)NCc4ccccc4Cl)CC3)c(=O)c2=O)CC1 (stereo not drawn),i,16,11,1.6,x,0.75,2.9,0.0,-1
CCCCn1cnc2c(oc3nc4c(cc32)CCCC4)c1=O,i,-18,-7,0.5,-2,0.62,1.5,1.1,-1
COc1cc(OC)c(NC2c3ccccc3C(=O)N2c2cc(C)ccn2)cc1Cl (stereo not drawn),+,-4,6,-3.7,x,0.65,-0.8,-0.3,0
Cc1ccc(-n2nc3c(c2NC(=O)c2ccco2)CS(=O)C3)c(C)c1 (stereo not drawn),i,17,3,1.6,0,0.69,1.0,0.2,4
CCn1c(O)c(/C=C2\C=Nc3ccccc32)sc1=Nc1ccc(C)cc1,i,5,-13,-5.8,-6,0.68,0.5,5.4,7
O=C(COc1ccc(S(=O)(=O)N2CCOCC2)cc1Cl)NCc1ccco1,i,5,10,-1.0,1,0.64,-0.8,-1.0,3
Cc1cc(NCC(=O)Nc2ccc(C)c(S(=O)(=O)N3CCOCC3)c2)ccc1Br,i,1,0,3.6,x,x,2.1,x,x
CC1Cc2ccccc2N1C(=O)c1cnc2n(c1=O)CCS2 (stereo not drawn),i,5,15,-8.6,-2,0.7,-2.1,0.3,-5
CC(C)Oc1ccc(C(=O)/C=C2/C(=O)Nc3ccccc32)cc1,i,-6,-3,-6.6,x,0.7,1.5,0.4,13
O=c1[nH]c2ccccc2cc1CN(Cc1ccco1)S(=O)(=O)c1ccccc1,i,-8,-26,2.6,-3,0.63,0.6,-5.7,-22
O=C(CN1C(=O)C2(OCCO2)c2cc(Br)ccc21)NO,i,-16,-12,-5.6,-2,0.69,3.1,4.2,-4
Cc1ccc(SCC(=O)NC(=O)Nc2ccc3c(c2)OCCO3)c(C)c1,x,x,x,x,-15,0.68,1.8,2.9,-2
